Calb biofilm kill: mixtures killing C. albicans biofilm; C. albicans biofilm persisters + clotrimazole, fluorescence viability; primary screen in compound mixtures of four per well; inhibition, % at 7.6 µM; actives 0.02% (n = 120,000);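 active = inhibition above 30.3% in the primary screen of four-compound pools, then above 30% when the compound was retested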;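 also: compounds exposed to preformed 24 h biofilms for 48 h; the number belongs to the whole pool; some results filed as inactive read as strong as hits; inactives centre near 12; 0% = biofilm with clotrimazole alone and 100% = kill control; retested singly at about 60 µM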
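Test system: C. albicans biofilms. Buffer or medium: RPMI/MOPS medium, pH 7.0. Timing: 48 h compound exposure at 37 °C. Technique: Alamar Blue fluorescence. Evaluation: percent inhibition of biofilm viability.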
Starred values were filed as active, the others as inactive. The list is partial; the hit share may differ from the screen's.

SMILES | Calb biofilm kill
CC1CCN(CC(=O)NCCc2ccc(F)cc2)CC1 | 27
Nc1nc(NCC2CCCO2)nc(Nc2ccc(F)cc2)c1[N+](=O)[O-] (stereo not drawn) | 18
Cc1cc(-c2ccc(NC(=O)[C@@H]3CCCC[C@@H]3C(=O)O)c(C)c2)ccc1NC(=O)[C@@H]1CCCC[C@@H]1C(=O)O | 2
CS(=O)(=O)c1ccc(C(=O)Nc2ccc(N3CCCCC3)cc2)c(Cl)c1 | 0
Cc1ccc(-n2nnnc2-c2cccc(C)c2)cc1 | 18
CC(=O)NC(=O)c1ccc(-c2ccc(Cl)cc2)o1 | 20
CC(C(=O)O)N(C(=O)c1ccccc1)c1ccc(F)cc1 (stereo not drawn) | 4
COc1ccc2nc(C(F)(F)Cl)c(C#N)c(N)c2c1 | 14
CCCCC1OC2(C)OC(=N)C1(C#N)C(C#N)(C#N)C2c1ccccc1 (stereo not drawn) | 9
NC(=O)c1ccc2nc(NC(=O)c3ccc(N)cc3)sc2c1 | -12
COCCOC(=O)c1c(NC(=O)CNC2CCCc3ccccc32)sc(C(N)=O)c1C (stereo not drawn) | 11
O=C(c1ccco1)N1CCC(N2CCN(c3ccccc3)CC2)CC1 | 16
COC(=O)CC/C(O)=C1\C(=O)CC(C)(C)CC1=NCCc1nc2ccccc2[nH]1 | 2
COc1cc(S(=O)(=O)n2ccnc2)ccc1Br | 12
O=C(Oc1ccc(=O)n(-c2ccccc2)n1)c1ccc(F)cc1 | 7
Cc1cccc(/C=N/NC(=O)c2ccc(Br)cc2)c1 | 7
Cc1c(C(=O)O)sc(S(=O)(=O)N2CCNCC2)c1C(=O)O | -1
NC(=O)CSc1ncnc2c1nnn2Cc1ccc(F)cc1 | 10
O=C1CCCCC/C1=N/Nc1ccc(OCc2ccccc2)cc1 | 3
O=Cc1ccc(OC(=O)c2cccnc2)cc1 | 1
Cc1ccccc1NC(=O)C1CCN(S(=O)(=O)c2cccs2)CC1 | 3
O=C(CNC(=O)c1ccccc1Br)N/N=C/c1cc(Br)ccc1O | 10
COc1ccc(NC(=O)C2CCCN(c3nccc(C)n3)C2)cc1 (stereo not drawn) | 18
COc1ccccc1-n1cc(CN2CCN(CC(C)C)C(CCO)C2)cn1 (stereo not drawn) | 26
CC(/C=C\C=C\c1ccccc1)=N\NC(=O)c1cncc(Br)c1 | -13
Cc1ccc(CN2CCN(Cc3cn(C)nc3C)CC2CCO)o1 (stereo not drawn) | 17
COc1ccc(CN(CCC(c2ccco2)C(C)C)C(C)=O)cc1OC (stereo not drawn) | 9
COc1cc(C(=O)NCc2nnc(SCC(=O)N3CCCc4ccccc43)o2)cc(OC)c1OC | 16
COCCNc1oc(/C=C/c2ccccc2)nc1C#N | 13
O=C(Cc1ccc(Cl)cc1)Nc1cc(S(=O)(=O)N2CCOCC2)ccc1N1CCCC1 | 0
CC(C)(C)OC(=O)NCCC(=O)N/N=C/c1ccc2ncccc2c1 | 16
CCN(C(=O)CCC(=O)N(CC)c1ccccc1)c1ccccc1 | 8
Cc1nn(Cc2c(F)c(F)c(F)c(F)c2F)c(C)c1NC(=O)c1ccc(COc2ccc(Cl)cc2Cl)o1 | 10
OCCCN=C1CCCc2c1[nH]c1ccc(Cl)cc21 | 20
Nc1ccc(C(=O)N2CCCC2)cc1CS(=O)(=O)c1ccc(Cl)cc1 | 6
O=C(NCc1cccnc1)c1nn2cccnc2c1Cl | 16
CCNC(=S)NNC(=O)c1ccc2ncccc2c1 | 8
Cc1c(Br)c([N+](=O)[O-])nn1CC(=O)Nc1c(C)n(C)n(-c2ccccc2)c1=O | 17
O=C(CN1CCN(c2ccccc2)CC1)NC(=O)NCc1ccco1 | 3
NC(=O)C1CCN(c2cc(Cl)nc(N)n2)CC1 | 16
COc1ccc(-c2[nH]n(-c3ccc([N+](=O)[O-])cc3)c(=O)c2C=NCc2ccccc2)cc1 | 12
Cc1ccccc1Nc1nc2nonc2nc1N1CCOCC1 | 17
O=C(Nc1nc2ccc(F)cc2s1)c1cccs1 | 7
CC1=NN(C(=O)c2ccc(Cn3nc(C)c(Br)c3C)cc2)C(O)(C(F)(F)F)C1 (stereo not drawn) | -6
Cc1ccnc(NS(=O)(=O)c2ccc(NC(=O)C3CC=CCC3C(=O)O)cc2)n1 (stereo not drawn) | 13
Cc1c(C#N)c(NC(=O)CCl)n(Cc2cccs2)c1C | 13
Cc1ccc(NCc2nnc(SCC(=O)NNC(=O)Cc3ccccc3)n2C)cc1 | 14
O=C(O)CC1S/C(=N/N=C/c2ccc(Br)cc2)N(c2ccccc2)C1=O (stereo not drawn) | 14
O=C(OCn1nnc2ccccc2c1=O)c1ccc(N2CCOCC2)c([N+](=O)[O-])c1 | 11
CCOc1ccc(C(C)=O)cc1CSc1nc2nc(C)cc(C)n2n1 | 24
Cc1sc2nc(CSc3cccc(C(F)(F)F)c3)[nH]c(=O)c2c1C | 22
CC(OC(=O)C1=Cc2ccccc2OC1)C(=O)NC(C)(C)C (stereo not drawn) | 31
Cn1cccc1/C=N\NC(=O)c1cncc(Br)c1 | 22
O=C(Nc1ccc2snnc2c1)N1CCN(c2ccccc2)CC1 | 6
O=C(Nc1ccccc1)/C(=C/c1cccnc1)NC(=O)c1ccco1 | 0
COc1cccc(CNc2nc3ccccc3n2CCN2CCCCC2)c1OC | 10
CN(C)c1ccc(C(=S)N2CCN(Cc3ccccc3)CC2)cc1 | 12
CCc1ccc(CN(C)C(=O)CC2C(=O)NCCN2Cc2ccoc2)cc1 (stereo not drawn) | 14
Cc1ccc(NC(=O)c2cccc(F)c2)cc1S(=O)(=O)N1CCCCCC1 | 13
Cc1ccc2nc3c(cc(S(=O)(=O)c4ccccc4)c(=N)n3Cc3ccco3)c(=O)n2c1 | 10
Other records.
SMILES | Calb biofilm kill
COC(=O)[C@@]1(Cc2ccc(F)cc2)[C@@H]2[C@@H](CC(=O)[C@H]2CC(=O)C(=O)N(C)C)CN1C(=O)c1ccccc1 | -3
COc1ccc(C)cc1NC(=S)NC(C)c1ccc(OC)c(OC)c1 (stereo not drawn) | -1
C=C(C)COc1ccc(-c2[nH]ncc2-c2ccc(Br)cc2)c(O)c1 | 16
Fc1ccccc1N1CCN(Cc2cnc(Cl)s2)CC1 | 9
CCn1c(C(C)NC(=O)c2cccs2)n[nH]c1=S (stereo not drawn) | 14
CCOC(=O)N1CCC(=NNC(=O)COc2ccc(C#N)cc2)CC1 | 19
CC(C)NCC(=O)Nc1c2c(nc3ccccc13)CCC2 | 22
CC1=Nc2ccccc2/C1=C/c1c(N)n2c(S(=O)(=O)CC(C)C)nsc2nc1=O | 16
CN(C)S(=O)(=O)c1cccc(NC(=O)COC(=O)CNC(=O)c2ccccc2F)c1 | 25
COC(=O)c1scc(S(C)(=O)=O)c1-n1cccc1 | 7
Cc1nn(-c2ccccc2)c(C)c1N | 15
Cn1nnnc1SCC(=O)Nc1cccc(S(=O)(=O)N2CCCC2)c1 | 12
CN(C)Cc1ccccc1Sc1ccccc1Br | 10
Cc1ccccc1NC(=O)CN1C(=O)S/C(=C\c2ccc(-c3cc(C(=O)O)ccc3C)o2)C1=O | -1
COc1ccc(/C=C/c2c([N+](=O)[O-])c(=O)n(C)c(=O)n2C)c(OC)c1OC | 16
Cn1c(NCc2ccc(Cl)cc2)nc2ccccc21 | 14
COc1cc2c(cc1OC)C(C)N(C(=O)c1nccnc1C(=O)O)CC2 (stereo not drawn) | 20
O=C1CCN(C(=O)/C=C/c2ccccc2)c2ccccc21 | 7
COc1cc(OC)cc(C(=O)NCc2cc(C)nc3ccccc23)c1 | 0
N=C(CC1CC(=O)NC(=O)C1)C1=C(O)CCCC1=O | 17

2 of the compounds above, as tab-separated lines.
SMILES	Calb biofilm kill
COc1ccc(/C=C/c2c([N+](=O)[O-])c(=O)n(C)c(=O)n2C)c(OC)c1OC	16
CCOC(=O)N1CCC(=NNC(=O)COc2ccc(C#N)cc2)CC1	19

(continued)
SMILES | Calb biofilm kill
CC(/C=N/N1CCN(Cc2ccccc2)CC1)=C\c1ccccc1 | 30
Cc1cc(C)n(C(=O)CNC(=O)C(c2ccccc2)c2ccccc2)n1 | 9
CC1CC(C)CN(CCOc2ccccc2-c2ccccc2)C1 (stereo not drawn) | 8
COc1cccc(OCCNC(=O)c2ccccc2Sc2ccccc2C#N)c1 | 19
CC(=O)C(Cc1cccc(F)c1)(Cc1cccc(F)c1)C(C)=O | 12
O=C(Cc1ccccc1)NCc1ccncc1 | 4
CCOC(=O)C1CC(c2ccccc2)=NNC1=O (stereo not drawn) | 13
Cc1c(/C=N/NC(=O)c2cc(C(C)(C)C)[nH]n2)c2ccccc2n1C | 32
CN1C(=S)N2CCCN2C1c1ccccc1 (stereo not drawn) | 17
COc1ccc(N2Cc3ccccc3C2=NC(=O)c2ccc(C)cc2)cc1OC | 11
NNC(=O)/C(=N/Nc1ccccc1)S(=O)(=O)c1ccc(Cl)cc1 | 15
COC(C(=O)Nc1ccc(S(=O)(=O)Nc2ccc(F)cc2)cc1)c1ccccc1 (stereo not drawn) | 14
Cc1cccc(OCC(=O)NCC(=O)N/N=C/c2cc(Br)ccc2OCc2ccccc2)c1 | 6
CNCC(=O)N(CC(C)C)c1c(N)n(CC(C)C)c(=O)[nH]c1=O | 11
COC(=O)C1CC(=O)N(c2ccc(C)cc2)C1 (stereo not drawn) | 11
C/C(=N\Nc1cccc([N+](=O)[O-])c1)c1cc(F)ccc1O | 32
COc1ccc(-n2nc(C#N)c(Cl)cc2=O)cc1 | 8
CCN(CC)S(=O)(=O)c1ccc(OC)c(-n2cnnn2)c1 | 23
CC(C)CNCC1OCc2ccccc2CO1 | 4
CCCCN1C(=O)C(=Nc2cccc3cnccc23)c2ccccc21 | 9
O=C(N/N=C/c1ccco1)c1cccc(N2CCCC2=O)c1 | 20
CN(CC1COc2ccccc2O1)C(=S)NC1CCCCC1 (stereo not drawn) | 24
C=CCNC(=S)NS(=O)(=O)c1cccs1 | 16
O=C(NCc1cccnc1)c1ccccc1NS(=O)(=O)c1ccc(F)cc1F | 0
C/C=C(\C)C(=O)Nc1cccc(C2=NOC3(C2)C[C@@H](C(N)=O)N(C(=O)c2ccccc2C(=O)c2ccccc2)C3)c1 (stereo partly drawn) | -2
CCOc1ccc(C(=O)NCC(=O)OCC(=O)Nc2cccc(S(=O)(=O)N3CCCC3)c2)cc1 | 12
CC(OCC(O)CNCC1COc2ccccc2O1)c1ccc(Cl)cc1 (stereo not drawn) | 13
CCOc1cccc(C(=O)NC(=S)Nc2cccc(NC(=O)c3ccccc3Cl)c2)c1 | 18
COc1cc(OC)cc(C(=O)Nc2ccc(NC(=O)c3ccco3)c(Cl)c2)c1 | -1
Cc1cc(C)c(OCCCCN2CCC(C)CC2)c(Br)c1 | 16
O=C(COC(=O)c1cnccn1)c1ccc([N+](=O)[O-])cc1 | 30
Cc1ccc(NC(=O)COC(=O)CCC(=O)c2cccs2)cc1C | 14
CCC(C)(C)NC(=O)C(c1cccs1)N(C(=O)c1ccn[nH]1)c1ccccc1 (stereo not drawn) | 10
O=C(Nc1ccc(F)cc1)C(=O)C1C(=O)Nc2ccccc21 (stereo not drawn) | 16
COc1ccc(NC(=O)c2ccccc2[N+](=O)[O-])cc1OC | 13
COC(=O)C1=C(C)C(c2ccc(OC)cc2)NC(=O)N1 (stereo not drawn) | 8
COC(=O)C1CCN(C(=O)c2ccc(OC3CCN(Cc4ccccn4)CC3)cc2)CC1 | 6
C/C(=N/NC(=O)CNC(=O)COc1cccc(C)c1)c1ccco1 | 21
C/C(=N\NC(=O)Cn1nc(C)c([N+](=O)[O-])c1C)c1ccc(O)cc1 | 12
Cc1ccc(C(C)C)c(OCC(=O)N/N=C/c2ccc(S(=O)(=O)O)o2)c1 | 21

In the list so far, 19 contain fluorine.
SMILES | Calb biofilm kill
CC1CCN(CC(=O)NCCc2ccc(F)cc2)CC1 | 27
Nc1nc(NCC2CCCO2)nc(Nc2ccc(F)cc2)c1[N+](=O)[O-] (stereo not drawn) | 18
CC(C(=O)O)N(C(=O)c1ccccc1)c1ccc(F)cc1 (stereo not drawn) | 4
COc1ccc2nc(C(F)(F)Cl)c(C#N)c(N)c2c1 | 14
O=C(Oc1ccc(=O)n(-c2ccccc2)n1)c1ccc(F)cc1 | 7
NC(=O)CSc1ncnc2c1nnn2Cc1ccc(F)cc1 | 10
Cc1nn(Cc2c(F)c(F)c(F)c(F)c2F)c(C)c1NC(=O)c1ccc(COc2ccc(Cl)cc2Cl)o1 | 10
O=C(Nc1nc2ccc(F)cc2s1)c1cccs1 | 7
CC1=NN(C(=O)c2ccc(Cn3nc(C)c(Br)c3C)cc2)C(O)(C(F)(F)F)C1 (stereo not drawn) | -6
Cc1sc2nc(CSc3cccc(C(F)(F)F)c3)[nH]c(=O)c2c1C | 22
Cc1ccc(NC(=O)c2cccc(F)c2)cc1S(=O)(=O)N1CCCCCC1 | 13
COC(=O)[C@@]1(Cc2ccc(F)cc2)[C@@H]2[C@@H](CC(=O)[C@H]2CC(=O)C(=O)N(C)C)CN1C(=O)c1ccccc1 | -3
Fc1ccccc1N1CCN(Cc2cnc(Cl)s2)CC1 | 9
CN(C)S(=O)(=O)c1cccc(NC(=O)COC(=O)CNC(=O)c2ccccc2F)c1 | 25
CC(=O)C(Cc1cccc(F)c1)(Cc1cccc(F)c1)C(C)=O | 12
COC(C(=O)Nc1ccc(S(=O)(=O)Nc2ccc(F)cc2)cc1)c1ccccc1 (stereo not drawn) | 14
C/C(=N\Nc1cccc([N+](=O)[O-])c1)c1cc(F)ccc1O | 32
O=C(NCc1cccnc1)c1ccccc1NS(=O)(=O)c1ccc(F)cc1F | 0
O=C(Nc1ccc(F)cc1)C(=O)C1C(=O)Nc2ccccc21 (stereo not drawn) | 16

The listing continues.
SMILES | Calb biofilm kill
COc1cc(OC)cc(C(=O)O/N=C(\N)c2ccccn2)c1 | 3
CCn1c2ccccc2c2nnc(SCC(=O)NC3CCS(=O)(=O)C3)nc21 (stereo not drawn) | 19
O=C1CC[C@@H](CN(Cc2ccccn2)Cc2nc(-c3ccc(C(F)(F)F)cc3)no2)N1 | 18
Cc1[nH]c2ccccc2c1C(=O)CSc1ccc(Cl)cc1 | 6
Nc1cc(Cl)ccc1N1CCCC1 | 8
CNS(=O)(=O)c1cc(Cl)ccc1Sc1ccccc1C(=O)O | 15
